DUX4 txn inh: DUX4-mediated transcription inhibition; 37,000 compounds, 0.8% hits; activity change, negative = inhibition, % (test concentration not listed); 293T-iDUX4 ZSCAN4-Gaussia luciferase reporter, 24 h; stronger effect = lower value; AID 1224904;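 active means -10% or lower and over 25 points stronger than a control reporter; inconclusive means -10% or lower with a smaller gap; inactive means above -10%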;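 further: 0% = median of neutral control wells and -100% = median of positive control wells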
DUX4 txn inh difference: recorded beside DUX4 txn inh, whose call it bears; Gaussia minus Italica difference, %; measured here: selective DUX4 reporter inhibition;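 worked out from the two reporters; negative = selective loss of the DUX4 reporter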
DUX4 txn inh control: further read-out of DUX4 txn inh, marked with its call; activity change, negative = inhibition, %; measured here: Italica tet-on control reporter;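 0 = neutral control and -100 = positive control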
* hit, by the source's call; ? = inconclusive; . = not tested or not shown.

| structure | DUX4 txn inh | DUX4 txn inh difference | DUX4 txn inh control |
| --- | --- | --- | --- |
| O=C(Cc1ccccn1)N1CCCCN2[C@H](C1)[C@@H](c1ccc(-c3ccccc3)cc1)[C@@H]2CO | 11 | 17 | -6.3 |
| C/C=C/c1ccc([C@H]2[C@@H](CO)N3CCCCN(C(=O)Cc4cccnc4)C[C@@H]23)cc1 | 16 | 13 | 3.1 |
| O=C(O)[C@H]1[C@H](CO)[C@H]2Cn3c(ccc(-c4ccccc4F)c3=O)[C@@H]1N2C(=O)c1cccnc1 | -2 | 1 | -3.3 |
| O=C(Cc1ccccc1)N1CCCCN2[C@H](CO)[C@@H](c3ccc(C#CC4(O)CCCC4)cc3)[C@H]2C1 | -6 | -11 | 5.2 |
| COC(=O)[C@H]1[C@H](CO)[C@H]2Cn3c(ccc(-c4cccc(C(=O)N(C)C)c4)c3=O)[C@@H]1N2CC1CC1 | 8 | 9 | -0.3 |
| COC(=O)[C@H]1[C@H](CO)[C@H]2Cn3c(ccc(-c4ccccc4)c3=O)[C@@H]1N2S(=O)(=O)c1ccccc1C | ? | . | . |
| COc1ccc(C#Cc2ccc([C@H]3[C@H](CO)N4CCCCN(C(=O)Cc5ccccc5)C[C@@H]34)cc2)cc1 | ? | . | . |
| COC(=O)[C@H]1[C@H](CO)[C@H]2Cn3c(ccc(-c4cccc(F)c4)c3=O)[C@@H]1N2C(=O)CC1CC1 | 2 | -1 | 2.8 |
| O=C(Cc1ccncc1)N1CCCCN2[C@@H](CO)[C@H](c3ccc(C#Cc4ccccc4F)cc3)[C@@H]2C1 | ? | . | . |
| O=C(O)[C@H]1[C@H](CO)[C@H]2Cn3c(ccc(-c4ccccc4)c3=O)[C@@H]1N2S(=O)(=O)c1ccccc1F | 4 | 3 | 1.3 |
| CC=Cc1ccc2n(c1=O)C[C@H]1[C@H](CO)[C@@H](C(=O)OC)[C@@H]2N1CC1CCOCC1 (mixture of isomers) | 3 | 1 | 2.1 |
| COC(=O)[C@H]1[C@H](CO)[C@H]2Cn3c(ccc(-c4ccccc4F)c3=O)[C@@H]1N2C(=O)C1CCC1 | 7 | 0 | 6.4 |
| COC(=O)[C@@H]1[C@@H](CO)[C@@H]2Cn3c(cccc3=O)[C@H]1N2C(=O)C1CCCC1 | -1 | -3 | 2.3 |
| COC(=O)[C@H]1[C@H](CO)[C@H]2Cn3c(ccc(C4=CCCCC4)c3=O)[C@@H]1N2CC1CCCCC1 | ? | . | . |
| O=C(Cc1cccnc1)N1CCCCN2[C@H](C1)[C@H](c1ccc(C#CC3CCCC3)cc1)[C@@H]2CO | ? | . | . |
| COC(=O)C[C@@H]1CC[C@H]2NC[C@H](O)COC[C@@H]2O1 | 5 | 3 | 2.1 |
| CCN1[C@@H]2c3ccc(-c4cccc(OC)c4)c(=O)n3C[C@H]1[C@H](CO)[C@H]2C(=O)OC | -4 | -6 | 2.5 |
| COC(=O)[C@@H]1[C@@H](CO)[C@@H]2Cn3c(ccc(C4=CCCCC4)c3=O)[C@H]1N2Cc1cccnc1 | -7 | -5 | -2.0 |
| C[C@@H]1CN([C@@H](C)CO)C(=O)CCCn2nncc2CO[C@@H]1CN(C)C(=O)Oc1ccc2ccccc2c1 | 2 | 2 | -0.7 |
| O=C(O)[C@H]1[C@H](CO)[C@H]2Cn3c(ccc(C4=CCCC4)c3=O)[C@@H]1N2C(=O)Cc1ccccn1 | -7 | -14 | 6.6 |
| COc1ccc(C#Cc2ccc([C@H]3[C@@H](CO)N4CCCCN(C(=O)Cc5cccnc5)C[C@@H]34)cc2)cc1 | ? | . | . |
| CCCN1[C@@H]2Cn3c(ccc(-c4cccc(OC)c4)c3=O)[C@H]1[C@@H](C(=O)OC)[C@@H]2CO | -3 | -5 | 1.4 |
| COC(=O)[C@H]1[C@H](CO)[C@H]2Cn3c(cccc3=O)[C@H]2N1CC1CC1 | 19 | 18 | 1.2 |
| CC(=O)N1[C@@H]2c3ccc(-c4cccc(C(=O)N(C)C)c4)c(=O)n3C[C@H]1[C@H](CO)[C@H]2C(=O)O | 0 | 1 | -1.1 |
| C/C=C/c1ccc(C2[C@H]3CNC[C@@H]2N3CC2CC2)cc1 (stereo partly drawn) | 17 | 11 | 6.0 |
| CCCNC(=O)N1[C@@H]2c3ccc(-c4ccccc4OC)c(=O)n3C[C@H]1[C@H](CO)[C@H]2C(=O)OC | 6 | -1 | 6.5 |
| O=C(Cc1ccccn1)N1CCCCN2[C@H](CO)[C@@H](c3ccc(-c4ccccc4F)cc3)[C@@H]2C1 | 4 | 7 | -2.4 |
| Cc1ccc(OC(=O)N(C)C[C@H]2OCc3cnnn3CCCC(=O)N([C@@H](C)CO)C[C@@H]2C)cc1 | 6 | 7 | -1.4 |
| CCCN1[C@@H]2Cn3c(ccc(-c4cccc(C(=O)N(C)C)c4)c3=O)[C@H]1[C@@H](C(=O)OC)[C@@H]2CO | 1 | 1 | -0.3 |
| COC(=O)[C@@H]1[C@@H](CO)[C@@H]2Cn3c(ccc(-c4cccc(OC)c4)c3=O)[C@H]1N2C(=O)c1ccccc1F | -5 | 2 | -6.5 |

Seven entries already listed, sorted by count of non-hydrogen atoms, low to high.
| structure | DUX4 txn inh | DUX4 txn inh difference | DUX4 txn inh control |
| --- | --- | --- | --- |
| COC(=O)C[C@@H]1CC[C@H]2NC[C@H](O)COC[C@@H]2O1 | 5 | 3 | 2.1 |
| CCN1[C@@H]2c3ccc(-c4cccc(OC)c4)c(=O)n3C[C@H]1[C@H](CO)[C@H]2C(=O)OC | -4 | -6 | 2.5 |
| C/C=C/c1ccc([C@H]2[C@@H](CO)N3CCCCN(C(=O)Cc4cccnc4)C[C@@H]23)cc1 | 16 | 13 | 3.1 |
| O=C(O)[C@H]1[C@H](CO)[C@H]2Cn3c(ccc(-c4ccccc4F)c3=O)[C@@H]1N2C(=O)c1cccnc1 | -2 | 1 | -3.3 |
| Cc1ccc(OC(=O)N(C)C[C@H]2OCc3cnnn3CCCC(=O)N([C@@H](C)CO)C[C@@H]2C)cc1 | 6 | 7 | -1.4 |
| O=C(Cc1ccncc1)N1CCCCN2[C@@H](CO)[C@H](c3ccc(C#Cc4ccccc4F)cc3)[C@@H]2C1 | ? | . | . |
| C[C@@H]1CN([C@@H](C)CO)C(=O)CCCn2nncc2CO[C@@H]1CN(C)C(=O)Oc1ccc2ccccc2c1 | 2 | 2 | -0.7 |

Next compounds:
| structure | DUX4 txn inh | DUX4 txn inh difference | DUX4 txn inh control |
| --- | --- | --- | --- |
| CCCNC(=O)N1[C@@H]2Cn3c(ccc(-c4ccccc4OC)c3=O)[C@H]1[C@@H](C(=O)OC)[C@@H]2CO | 11 | 3 | 8.1 |
| COC(=O)[C@@H]1[C@@H](CO)[C@@H]2Cn3c(ccc(-c4ccccc4)c3=O)[C@H]1N2CC1CCOCC1 | -4 | -3 | -1.0 |
| CC=Cc1ccc2n(c1=O)C[C@@H]1[C@@H](CO)[C@H](C(=O)OC)[C@H]2N1CC1CCCCC1 (mixture of isomers) | -7 | -1 | -5.8 |
| COC(=O)[C@@H]1[C@@H](CO)[C@@H]2Cn3c(ccc(-c4ccccc4)c3=O)[C@H]1N2CCc1ccccc1 | -2 | -1 | -0.8 |
| COc1cccc(-c2ccc([C@H]3[C@H]4CN(C(=O)Cc5ccncc5)CCCCN4[C@H]3CO)cc2)c1 | ? | . | . |
| COc1cccc(-c2ccc([C@@H]3[C@@H](CO)N4CCCCN(C(=O)Cc5ccncc5)C[C@H]34)cc2)c1 | 2 | 10 | -8.2 |
| Cc1cccc(S(=O)(=O)N2[C@@H]3c4ccc(-c5ccncc5)c(=O)n4C[C@H]2[C@H](CO)[C@H]3C(=O)O)c1 | -1 | -4 | 2.5 |
| CN(C)C(=O)[C@H]1[C@H](CO)[C@H]2Cn3c(cccc3=O)[C@@H]1N2CC1CC1 | -1 | -7 | 6.8 |
| O=C(Cc1ccccn1)N1CCCCN2[C@@H](CO)[C@@H](c3ccc(-c4ccccc4F)cc3)[C@@H]2C1 | -5 | 2 | -6.3 |
| COC(=O)[C@@H]1[C@@H](CO)[C@@H]2Cn3c(ccc(-c4ccccc4F)c3=O)[C@H]1N2C(=O)C1CCC1 | -3 | -13 | 9.6 |
| COC(=O)[C@@H]1[C@@H](CO)[C@@H]2Cn3c(ccc(C4=CCCCC4)c3=O)[C@H]1N2Cc1ccccn1 | 2 | 8 | -6.7 |
| CCN1[C@@H]2c3ccc(-c4cccc(C(=O)N(C)C)c4)c(=O)n3C[C@H]1[C@H](CO)[C@H]2C(=O)OC | -6 | -15 | 8.7 |
| N#Cc1cccc(-c2ccc([C@H]3[C@H](CO)N4CCCCN(C(=O)Cc5cccnc5)C[C@@H]34)cc2)c1 | 21 | 6 | 15 |
| Cc1ccccc1-c1ccc([C@H]2[C@@H](CO)N3CCCCN(C(=O)Cc4ccccn4)C[C@@H]23)cc1 | 8 | 2 | 5.9 |
| O=C(O)[C@H]1[C@H](CO)[C@H]2Cn3c(ccc(-c4ccccc4F)c3=O)[C@@H]1N2C(=O)Nc1ccccc1 | 8 | 1 | 6.6 |

Laid out differently: results already given.
COC(=O)[C@@H]1[C@@H](CO)[C@@H]2Cn3c(ccc(-c4ccccc4F)c3=O)[C@H]1N2C(=O)C1CCC1
- DUX4 txn inh = -3
- DUX4 txn inh difference = -13
- DUX4 txn inh control = 9.6
CCN1[C@@H]2c3ccc(-c4cccc(C(=O)N(C)C)c4)c(=O)n3C[C@H]1[C@H](CO)[C@H]2C(=O)OC
- DUX4 txn inh = -6
- DUX4 txn inh difference = -15
- DUX4 txn inh control = 8.7

Continuation.
| structure | DUX4 txn inh | DUX4 txn inh difference | DUX4 txn inh control |
| --- | --- | --- | --- |
| OC[C@@H]1[C@@H]2c3ccccc3NC[C@@H]2N1Cc1cccnc1 | 0 | 3 | -2.7 |
| C[C@H](CO)N1C[C@H](C)[C@@H](CN(C)C(=O)Oc2ccc3ccccc3c2)OCc2cn(nn2)CCCC1=O | 2 | 5 | -2.3 |
| COc1ccc(C#Cc2ccc([C@@H]3[C@H]4CN(C(=O)Cc5cccnc5)CCCCN4[C@H]3CO)cc2)cc1 | ? | . | . |
| COC(=O)[C@@H]1[C@@H](CO)[C@@H]2Cn3c(ccc(-c4cncnc4)c3=O)[C@H]1N2S(=O)(=O)c1ccccc1C | -17* | -27* | 10* |
| O=C(O)[C@@H]1[C@@H](CO)[C@@H]2Cn3c(ccc(-c4ccncc4)c3=O)[C@H]1N2S(=O)(=O)c1ccccc1F | 2 | -2 | 3.3 |
| O=C(O)[C@@H]1[C@@H](CO)[C@@H]2Cn3c(ccc(C4=CCCCC4)c3=O)[C@H]1N2C(=O)Cc1ccccn1 | 12 | 10 | 2.5 |
| CCCNC(=O)[C@@H]1[C@@H](CO)[C@@H]2Cn3c(cccc3=O)[C@H]1N2CCC | 5 | 1 | 4.6 |
| CN1[C@@H]2CNc3ccccc3[C@@H]2[C@@H]1CO | -3 | 1 | -3.7 |
| COC(=O)[C@H]1N[C@H]2c3ccc(C4=CCCC4)c(=O)n3C[C@H]2[C@@H]1CO | 1 | -4 | 4.7 |
| COC(=O)[C@H]1[C@H](CO)[C@H]2Cn3c(ccc(-c4cccc(F)c4)c3=O)[C@@H]1N2Cc1cccnc1 | 7 | 6 | 0.5 |
| Cc1ccc(OC(=O)N(C)C[C@@H]2OCc3cnnn3CCCC(=O)N([C@H](C)CO)C[C@@H]2C)cc1 | 1 | 5 | -3.7 |
| COC(=O)[C@H]1[C@H](CO)[C@H]2Cn3c(cccc3=O)[C@@H]1N2C(=O)C1CC1 | 3 | -3 | 6.2 |
| COc1cccc(-c2ccc([C@H]3[C@@H](CO)N4CCCCN(C(=O)Cc5ccncc5)C[C@H]34)cc2)c1 | ? | . | . |
| C[C@H]1CN([C@@H](C)CO)C(=O)CCCn2cc(nn2)CO[C@@H]1CN(C)C(=O)Oc1ccc2ccccc2c1 | 2 | 9 | -6.3 |
| CN(C)CC#Cc1ccc([C@@H]2[C@H](CO)N3CCCCN(C(=O)Cc4ccccn4)C[C@@H]23)cc1 | 14 | 10 | 4.1 |
| Cc1ccccc1-c1ccc([C@H]2[C@@H](CO)N3CCCCN(C(=O)Cc4ccccn4)C[C@H]23)cc1 | ? | . | . |
| COC(=O)[C@H]1[C@H](CO)[C@H]2Cn3c(ccc(-c4ccccc4)c3=O)[C@@H]1N2C(=O)c1ccccc1F | 0 | 1 | -0.3 |
| O=C(Cc1ccccn1)N1CCCCN2[C@@H](CO)[C@@H](c3ccc(C#Cc4ccccc4)cc3)[C@@H]2C1 | 2 | -12 | 15 |
| O=C(O)[C@H]1[C@H](CO)[C@H]2Cn3c(ccc(-c4ccncc4)c3=O)[C@@H]1N2S(=O)(=O)c1ccccc1F | -2 | -8 | 6.7 |
| COC(=O)[C@@H]1[C@@H](CO)[C@@H]2Cn3c(ccc(-c4cccnc4)c3=O)[C@H]1N2S(=O)(=O)c1ccccc1F | 1 | 0 | 1.1 |
| CC=Cc1ccc2n(c1=O)C[C@@H]1[C@@H](CO)[C@H](C(=O)OC)[C@H]2N1S(=O)(=O)c1cccc(C)c1 (mixture of isomers) | 5 | -1 | 6.4 |
| CN1c2ccc(Br)cc2[C@@H]2NCC[C@@H]2[C@@H]1CO | 8 | 6 | 1.5 |
| CC(=O)N1[C@@H]2Cn3c(ccc(-c4cccc(C(=O)N(C)C)c4)c3=O)[C@H]1[C@@H](C(=O)O)[C@@H]2CO | -5 | -2 | -2.6 |

Source: PubChem (Broad Institute)

Only part of the results is shown, so the mix of outcomes need not match the whole.
